D2 PAM: human D2 receptor positive allosteric modulation; DiscoveRx D2 beta-arrestin cells, luminescence, 90 min; 100% = 57 uM dopamine signal; P14416; potentiation, % (test concentration not listed); hit rate 0.23% among 360,000; active = potentiation of 50% or more; inconclusive = 30% to 50%; inactive = 30% or less;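 note: compound concentration not given in the record; tested on top of an EC20 dose of dopamine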
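D2 cells co-treated with compound plus 50 nM dopamine (EC20) for 90 min at 37 deg C to detect potentiation. Beta-arrestin recruitment was read as enzyme-fragment luminescence after 1 h at ambient temperature. Full response was set by 57 uM dopamine.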
PINK1 modulator: modulators of PINK1 expression. AID 624263. PINK1 immunofluorescence, high-content cytometry, 24 h. hit rate 0.2% among 410,000. Potency, µM (top dose mostly 76.6 µM), without a hit: at the highest dose activation (PINK1 increase), actives largely listed as activators; active = well fitted activation curve with a large enough effect; inconclusive = small, poorly fitted or top-dose-only effect; inactive = flat fitted curve, though single readings scatter; cell line not stated here;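 note: potency is the fitted concentration of half-maximal effect; % of control where 0% means no effect; nearly all actives have a fitted effect of over 65% in size; a mitochondrial uncoupler was the plate control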
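PINK1 protein, normally rapidly degraded, was detected by immunofluorescence after 24 hour compound treatment of a stable cell line. Titration data (5 concentrations) came from laser-scanning cytometry, with CCCP-treated wells as controls.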
TRPV1 PAM: enhances activation of the human vanilloid receptor TRPV1 | TRPV1-expressing cells, Fluo-8 calcium influx, capsaicin EC20 potentiation; host cell line not named in the record; control for the full effect not named in the record | potentiation, % at 8.33 µM | hit rate 0.02% among 320,000 | AID 540277; active means potentiation above 80%; inconclusive means 30% to 80%; inactive means below 30%; note: 0% is about no effect
Target sequence (Q8NER1 whole entry, looked up): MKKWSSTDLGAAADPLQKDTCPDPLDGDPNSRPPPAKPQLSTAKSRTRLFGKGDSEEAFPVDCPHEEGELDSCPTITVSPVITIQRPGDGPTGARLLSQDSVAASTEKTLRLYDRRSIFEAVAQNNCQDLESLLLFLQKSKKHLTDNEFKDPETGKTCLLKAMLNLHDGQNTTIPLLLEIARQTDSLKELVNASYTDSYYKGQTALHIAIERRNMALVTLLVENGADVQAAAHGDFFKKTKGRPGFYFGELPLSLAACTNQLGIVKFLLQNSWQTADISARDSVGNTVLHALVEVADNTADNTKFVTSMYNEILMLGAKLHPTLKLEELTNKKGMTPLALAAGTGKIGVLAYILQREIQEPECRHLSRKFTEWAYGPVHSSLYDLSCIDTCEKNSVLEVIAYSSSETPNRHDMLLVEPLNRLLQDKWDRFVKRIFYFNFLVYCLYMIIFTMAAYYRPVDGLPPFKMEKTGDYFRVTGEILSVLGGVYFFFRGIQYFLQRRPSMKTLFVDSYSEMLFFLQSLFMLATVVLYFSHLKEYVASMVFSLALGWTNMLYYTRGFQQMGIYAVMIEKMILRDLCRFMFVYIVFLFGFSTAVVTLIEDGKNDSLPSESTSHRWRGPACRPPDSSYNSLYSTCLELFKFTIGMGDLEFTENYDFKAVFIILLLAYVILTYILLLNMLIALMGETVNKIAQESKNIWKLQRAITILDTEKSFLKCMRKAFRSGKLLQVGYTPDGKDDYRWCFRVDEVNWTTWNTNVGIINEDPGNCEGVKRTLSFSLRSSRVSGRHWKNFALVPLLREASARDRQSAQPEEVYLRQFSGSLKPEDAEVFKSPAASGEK
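TRPV1-expressing cells were cultured overnight at 35.5C and loaded with Fluo-8 calcium dye for 40 to 90 min at room temperature. After a 10 s baseline, compound was added and calcium influx was read kinetically for 3 min (ex 480/em 520 nm).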
Sfp inh: inhibitors of Bacillus subtilis Sfp phosphopantetheinyl transferase | AID 1490 | Potency, µM, without a hit: max response, negative = inhibition, usual class: inhibitors | Biochemical Sfp PPTase activity, qHTS | Q9F4F7 | hit rate 3.5% among 310,000; active = well fitted inhibition curve with a large enough effect; inconclusive = small, poorly fitted or top-dose-only effect, or another doubt; inactive = no such curve, though single readings can be large or run the other way;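 note: the enzyme is Sfp with the accession as filed and its product quenches rhodamine fluorescence; potency is the fitted concentration of half-maximal effect; 0% = enzyme reaction without inhibitor and -100% = no enzyme wells; top concentration of the series not given in the record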
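Compounds were incubated with enzyme (final 15 nM) for 15 min at room temperature before substrate addition started the reaction. Fluorescence at 525 nm excitation, 598 nm emission was recorded immediately and after 30 minutes.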
D2 agonist: activates the human D2 dopamine receptor; activation, % (no concentration beside the values); DiscoveRx PathHunter D2 beta-arrestin, luminescence, 90 min; 100% = 57 uM dopamine signal; P14416; hit rate 0.084% among 360,000; in the data active = activation above about 40%; inconclusive = about 15% to 40%; inactive = below about 15%; note: compound concentration not given in the record; the text of the record calls up to 30% inactive
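DiscoveRx PathHunter D2 beta-arrestin cells (2,100/well) attached overnight, then compound-stimulated 90 min at 37 C in HBSS/10 mM HEPES/0.1% Tween-20 buffer; beta-galactosidase complementation read by luminescence after 1 h at ambient temperature. Dopamine 57 uM final (EC100) as control.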
CtBP-E1A inh: inhibitors of CtBP/E1A interaction. AlphaScreen GST-E1A/His-CtBP binding, 1536-well; hits give low values; control for the full effect not named in the record. activity change, % (no concentration beside the values). hit rate 0.49% among 340,000. AID 651724; in the data active means activity change below about -65%; inconclusive means about -30% to -65%; inactive means above about -30%; note: % is set by controls: 0 for no effect and ±100 for the full control effect; compound concentration not given in the record
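Homogeneous bead-based format: GST-tagged E1A captured on glutathione donor beads, His-tagged CtBP on nickel acceptor beads; compounds precede bead addition by 2 h at 37 °C.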
Six1-Eya2 blk: inhibitors of human Six1/Eya2 interaction; Q15475+O00167; AlphaScreen GST-Six1/His-Eya2 binding, biochemical; hits give low values; control for the full effect not named in the record; activity change, % (concentration not given with the values); hit rate 0.56% among 360,000; AID 651725; in the data active = activity change below about -65%; inconclusive = about -30% to -65%; inactive = above about -30%; note: % is set by controls: 0 for no effect and ±100 for the full control effect
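GST-Six1 + His-Eya2 (5X stock: 250/500 nM); Tris pH 8.0, 300 mM NaCl, 0.05% BSA, 0.02% Tween 20; GSH donor/Ni acceptor beads; 1 h 37 °C dark; AlphaScreen readout.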
* hit, by the source's call; ? = inconclusive; nt = no result given; [ ] = dose if it differs, or a comment.

SMILES	D2 PAM	PINK1 modulator	TRPV1 PAM	Sfp inh	D2 agonist	CtBP-E1A inh	Six1-Eya2 blk
Cc1cnc(=O)[nH]c1SCc1ccccc1F	-20	1.1%	6	10%	1.9	nt	4
C=C(C)C1CCC(C)=C1CC(C)(C)/C=N\n1cnnc1 (stereo unspecified)	7	-1.6%[38.3 µM]	10	-8%	4.4	12	-1
O=C(CN1CCOCCOCCOCCOCC1)Nc1ccccc1	8	4.0%[38.3 µM]	4	6%	1.1	-9	-16
Cc1ccc(C)c(OCC(=O)Nc2ccc(S(=O)(=O)Nc3onc(C)c3C)cc2)c1	0	2.8%	14	12%	0.8	4	-4
Cc1ccc2nc(C)c(C(=O)N/N=C/c3cccc([N+](=O)[O-])c3)cc2c1	-18	6.4%	-4	-6%	-2.3	-3	-10
COC(=O)c1cc2oc(C)cc2n1CC(=O)Nc1cc(C)cc(C)c1	1	1.1%[38.3 µM]	20	4%	-1.2	13	-1
O=C(c1c[nH]c2ccccc12)N1CCOCC1	-8	2.5%	26	-11%	-6.1	2	-2
CCc1ccc[n+](-c2nc3ccccc3nc2C(=C=[N-])C#N)c1	-8	0.5%	-8	-18%	-3.9	8	-4
CC(Oc1ccccc1)C(=O)Nc1ccc(S(=O)(=O)Nc2nccs2)cc1 (stereo unspecified)	-4	0.2%	24	2%	-2.6	-3	2
CCN(Cc1ccc(O)cc1)CC1CCCN(CCc2cccc(F)c2)C1 (stereo unspecified)	-58	1.0%	-1	2%	-5.6	nt	-6
CCN1CCCC1CNC(=O)C1c2ccccc2C(=O)N(CCOC)C1c1ccc(F)cc1 (stereo unspecified)	-6	-4.7%	-9	-7%	-2.9	17	0
O=C(c1ccncc1)N1CCN(S(=O)(=O)c2ccccc2Br)CC1	9	0.9%	-1	nt	-2.6	1	1
CC(=O)c1ccc(S(=O)(=O)NC2CC(=O)N(c3ccc4c(c3)OCCO4)C2)cc1 (stereo unspecified)	3	-0.3%	-4	nt	1.3	-2	6
C[C@@H]1CN([C@H](C)CO)C(=O)CCCn2nncc2CO[C@@H]1CN(C)C(=O)CCC(F)(F)F	2	0.3%	nt	nt	-5.8	-2	1
CC(C)NCC(O)COC1C2CC3CC(C2)CC1C3 (stereo unspecified)	-3	0.4%	-6	5%	4.9	5	15

Entries listed so far that have a carbonyl joined to an NH by a bond outside any ring, in the order listed:
SMILES	D2 PAM	PINK1 modulator	TRPV1 PAM	Sfp inh	D2 agonist	CtBP-E1A inh	Six1-Eya2 blk
O=C(CN1CCOCCOCCOCCOCC1)Nc1ccccc1	8	4.0%[38.3 µM]	4	6%	1.1	-9	-16
Cc1ccc(C)c(OCC(=O)Nc2ccc(S(=O)(=O)Nc3onc(C)c3C)cc2)c1	0	2.8%	14	12%	0.8	4	-4
Cc1ccc2nc(C)c(C(=O)N/N=C/c3cccc([N+](=O)[O-])c3)cc2c1	-18	6.4%	-4	-6%	-2.3	-3	-10
COC(=O)c1cc2oc(C)cc2n1CC(=O)Nc1cc(C)cc(C)c1	1	1.1%[38.3 µM]	20	4%	-1.2	13	-1
CC(Oc1ccccc1)C(=O)Nc1ccc(S(=O)(=O)Nc2nccs2)cc1 (stereo unspecified)	-4	0.2%	24	2%	-2.6	-3	2
CCN1CCCC1CNC(=O)C1c2ccccc2C(=O)N(CCOC)C1c1ccc(F)cc1 (stereo unspecified)	-6	-4.7%	-9	-7%	-2.9	17	0

Remaining list, next part:
SMILES	D2 PAM	PINK1 modulator	TRPV1 PAM	Sfp inh	D2 agonist	CtBP-E1A inh	Six1-Eya2 blk
Cc1cc(S(=O)(=O)NCCCN2CCOCC2)c(C)cc1Cl	-23	0.4%	-8	18%	-4.2	6	0
CN(CCCC1CCCC1)C(=O)c1cc(COc2ccc(F)c(F)c2)on1	-7	3.9%	-14	3%	-1.9	nt	48
COc1ccc(CNC(=O)C(=O)NCC2OCCN2S(=O)(=O)c2ccc(F)cc2)cc1 (stereo unspecified)	-5	0.9%	-5	-4%	-4.8	7	3
CCN(CC)S(=O)(=O)c1cc(C(=O)n2cccn2)c(Cl)cc1Cl	-12	-1.0%[38.3 µM]	3	9%	-0.6	34	7
COCCn1nnnc1C(c1cc2cc(OC)ccc2[nH]c1=O)N1CCC(Cc2ccccc2)CC1 (stereo unspecified)	-2	0.0%	-11	-9%	1.5	5	-12
N#C/C(=C\c1c(N2CCCCCC2)nc2ccccn2c1=O)C(N)=O	-5	-0.9%	-9	13%	-2.9	-1	-10
O=[N+]([O-])c1ccc(CN2CCN(c3ncccn3)CC2)cc1	?	-0.4%	-1	-25%	49*	6	-6
Cc1cc(F)ccc1S(=O)(=O)N1CCCCC1CCNC(=O)C(=O)NCCN1CCOCC1 (stereo unspecified)	-8	-0.6%	-5	nt	0.4	0	0
CC(C)[C@H](NC(=O)c1ccccc1F)C(=O)OCC(=O)Nc1sccc1C(N)=O	-7	-0.2%	nt	nt	-5.3	-5	-7
CCCN(CCC)CCNC(=O)CCC(=O)Nc1ccc2nc(N3CCN(C)CC3)cc(C)c2c1	-8	0.1%	6	-4%	-2.7	6	1
CCCCn1c(=O)c(C(C)=O)c(O)c2ccccc21	-1	0.9%	7	10%	-2.7	0	5
CCOc1ccc(OCCCC(=O)NCCOc2ccccc2OC)cc1	-4	0.7%	-2	9%	-3.1	-11	-5
Cc1ccc(NC(=O)CN2CCCC2)cc1	-4	1.9%	-5	1%	-4.2	-8	2
O=C(COC(=O)/C=C/c1ccccc1)NNC(=O)c1ccccc1F	1	0.3%	10	nt	-3.7	-3	-4
CCCCn1c(N)c(N(CCOC)C(=O)CCNC(=O)c2ccc(Cl)cc2)c(=O)[nH]c1=O	-1	6.5%	13	nt	-0.3	7	10
Cc1c(Cl)cccc1NC(=S)N1CCN(C(=O)c2ccco2)CC1	4	2.6%	11	5%	2.9	4	-2
CCCn1c(SCC(=O)N2CCN(S(=O)(=O)c3ccc(Cl)cc3)CC2)n[nH]c1=O	-6	-1.1%	-5	13%	-1.3	-2	4
Cc1ccc(/C=C(\NC(=O)c2ccc(C)cc2)c2nc(=S)[nH][nH]2)cc1	-10	-4.4%	-20	-1%	-4.1	-18	-3
Cc1cc(NC(=O)COc2ccc(C(C)(C)C)cc2)no1	0	1.8%	?	16%	0.0	-2	3
COc1cccc(N=CC=C2OC(C)(C)C(C)(C)O2)c1	-1	4.3%	?	-9%	-5.2	-13	5
CN(CC(=O)Nc1ccc(S(=O)(=O)N2CCCC2)cc1)CC(=O)Nc1ccc(F)c(F)c1F	0	2.5%	5	-6%	0.8	-2	6
O=c1cc(N2CCCCC2)c(-c2ccccc2)nn1Cc1ccc(Cl)cc1Cl	-14	-0.2%	2	?	-3.5	0	-1
O=C1CCCc2nc(N3CCN(C(c4ccccc4)c4ccccc4)CC3)ncc21	-5	6.0%	-11	-9%	-2.8	-1	-8
O=C(COc1ncnc2ccccc12)NC1CCS(=O)(=O)C1 (stereo unspecified)	-20	-0.4%	5	14%	1.1	-1	-1
O=C(Nc1sc2c(c1C(=O)c1ccccc1)CCCC2)c1cccnc1	-4	-0.7%	2	17%	-3.6	1	2
COc1ccc(Cc2nc3ccc(C(=O)N4CCC[C@H]4CO)cc3o2)cc1	0	2.1%	6	2%	-0.6	-9	6
O=C(Nc1ccccc1F)Nc1cc(Cl)ccc1-n1cncn1	-7	-1.3%	5	4%	-3.2	-18	-1
Cc1nc(NC(=O)CCN2C(=O)C3CC=CCC3C2=O)sc1C (stereo unspecified)	0	0.8%	-8	11%	-1.3	12	-6
COC(=O)Nc1cccn(Cc2c(Cl)cccc2Cl)c1=O	1	-0.4%	-10	3%	1.3	5	-3
COc1ccc(Cl)cc1NC(=O)CN(C)C(=O)c1cc2c(s1)CCC(C)C2 (stereo unspecified)	16	-1.2%	12	nt	0.2	1	-1
COc1ccc(N2CCN(C(=O)c3ccc(COc4ccc5c(C)cc(=O)oc5c4)cc3)CC2)cc1	-2	3.7%	4	-6%	-2.9	-3	-4
CC1CCC2(CC1)NC(=O)N(CC(=O)NCCc1c[nH]c3ccccc13)C2=O (stereo unspecified)	0	1.0%	6	nt	8.1	4	5
Cc1ccc(OCC(=O)Nc2ccc3c(c2)OC(F)(F)O3)c([N+](=O)[O-])n1	-17	1.1%	12	7%	-1.9	10	2
CCSc1nc2cc(S(=O)(=O)N3CCOCC3)ccc2o1	-4	0.1%	nt	nt	2.3	5	1
CC1CCC(NC(=O)C2CCN(c3c4c(nc5ncnn35)CCC4)CC2)CC1 (stereo unspecified)	-5	1.9%	1	11%	-0.4	0	8
CCOC(=O)C1=CN(Cc2ccco2)S(=O)(=O)N(C)C1CC (stereo unspecified)	0	-0.6%	nt	nt	-1.4	22	12
CCSc1nnc(NC(=O)c2cccnc2Cl)s1	-2	-2.7%	-8	24%	-1.4	-7	2
O=C(Nc1ccn(CCCN2CCN(c3ncccn3)CC2)c(=O)n1)OCc1ccccc1	nt	-0.2%	nt	nt	5.8	-2	-3
O=C(c1cc2ccccc2o1)c1nc2c(n1O)CCCCC2	-19	-0.3%	1	12%	-1.3	-2	-3
COc1ccc(-c2c(C#N)c(N)nc3sc(C(=O)c4ccc(C)cc4)c(N)c23)cc1	-15	?	-5	-23%	-1.0	7	31
O=C(N/N=C/c1cccnc1)c1[nH]ncc1Br	8	3.6%	16	2%	0.2	9	0
CCCc1c(C)[nH]c2ccc(C(=O)O)cc2c1=S	-5	-0.3%	?	25µM*	-1.4	4	?
CC(C)NC(=O)CSc1ncccc1-c1nc2ccccc2[nH]1	-3	2.0%	9	15%	-1.3	nt	-3
COc1ccc(OC)c(CC(=O)Nc2cc(S(=O)(=O)N3CCCCC3)ccc2C)c1	-4	-1.3%	1	nt	-1.7	-17	-7
Cc1nnc(SCCCN2C(=O)c3ccccc3C2=O)o1	14	1.9%	?	10%	0.0	-22	-15
COc1ccc(/C=N/N(Cc2ccccc2)c2ccccc2)cc1O	-7	-0.9%	4	18%	0.8	-14	?
Cc1cc(C)c(NC(=O)CN2CCN(c3ccccn3)CC2)c(C)c1	-4	1.4%	5	7%	8.2	-6	8
CC1CCC2(CC1)C(Nc1cccc(Cl)c1)=NC(=S)N2CC#N (stereo unspecified)	-23	1.0%	21	18%	-3.8	1	-10
CSC1=NCCN1C(=O)Cc1cccs1	0	1.5%	-13	18%	-4.8	-17	13
Cc1ccc(C(=O)N/C(=C\c2cn(C)c3ccccc23)C(=O)NCCN2CCOCC2)cc1	-6	1.0%	?	-11%	-2.3	-10	-1

Screening results: PubChem BioAssay, National Center for Advancing Translational Sciences (NCATS)

This is a random part of the collection; any-hit rate near 3.7%.
